# A1 inh = A1 inhibition. caspase activation, % (no concentration beside the values). MEF A1-2A-BIM cells, caspase-Glo luminescence, 3 h; percent of clofoctol signal, DMSO as zero. actives 0.51% (n = 21,000). AID 2241;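 active means most replicate scores above 10, or exactly half above 10 with mean activity above 10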;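 further: effector caspase 3 and 7 activity cleaving a DEVD luciferin substrate; 50 nL library stock added to about 30 µL; numbers are from one replicate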
# BJeLR viability = lowers viability of BJeLR cells | actives 0.64% (n = 30,000) | AID 2275 | viability loss activity score, % (concentration not given with the values) | BJeLR fibroblasts viability, CellTiterGlo ATP luminescence, 48 h; HRASV12, hTERT and SV40 LT/ST transformed; in the data active means viability loss activity score above about 50%; about a fifth of its hits are not listed in these tables;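 further: higher score means fewer live cells and less ATP luminescence; stock transfer was 50 or 100 nL into about 30 µL; 0% = vehicle wells and 100% = a reference killing control; one replicate is shown; the record names a cut of 85%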
# Starred values were filed as active, the others as inactive; & = joins results of further samples.
CCCNC(C)C(=O)Nc1c(C)csc1C(=O)OC (stereo unspecified)
  A1 inh = 0.9
  BJeLR viability = 5.4
C[C@]12CCC(=O)C=C1CC[C@@H]1C2CC[C@@]2(C)C1CC[C@@H]2C(=O)CO (stereo partly specified)
  A1 inh = -0.2
  BJeLR viability = -4.7
O=C(CCNNC(=O)c1ccncc1)NCc1ccccc1
  A1 inh = 0.3
  BJeLR viability = -2.4
Cc1c(NC(=O)c2cccnc2)c(=O)n(-c2ccccc2)n1C
  A1 inh = -0.1
  BJeLR viability = -2.6
OCCN1CCN(CCCN2c3ccccc3Sc3ccc(Cl)cc32)CC1
  A1 inh = -0.6
  BJeLR viability = 0.2
CC(C(=O)O)c1ccc(C(=O)c2cccs2)cc1 (stereo unspecified)
  A1 inh = -1.9
  BJeLR viability = -5.6
COc1cc2ncnc(Nc3cccc(O)c3)c2cc1OC
  A1 inh = 12*
  BJeLR viability = -4.2
CCOC(=O)c1ccc(N)cc1
  A1 inh = -0.2
  BJeLR viability = -6.1
CN1CCOC(c2ccccc2)c2ccccc2C1 (stereo unspecified)
  A1 inh = -0.8
  BJeLR viability = -0.3
CC(=O)c1ccc(S(=O)(=O)NC(=O)NC2CCCCC2)cc1
  A1 inh = 0.4
  BJeLR viability = -1.4
CN(C(=O)CCCOc1ccc2[nH]c(=O)ccc2c1)C1CCCCC1
  A1 inh = 0.2
  BJeLR viability = 6.3
COc1cc(O)c2c(=O)cc(-c3ccc(OC)c(-c4c(O)cc(O)c5c(=O)cc(-c6ccc(O)cc6)oc45)c3)oc2c1
  A1 inh = 0.5
  BJeLR viability = -8.0
Cc1cc(-c2ccccc2)nnc1NCCN1CCOCC1
  A1 inh = 0.2
  BJeLR viability = -1.2
Cc1nc2ccccn2c(=O)c1CCN1CCC(C(=O)c2ccc(F)cc2)CC1
  A1 inh = -1.2
  BJeLR viability = -0.8
c1ccc(CC2=NCCN2)cc1
  A1 inh = -0.5
  BJeLR viability = 0.6

# Entries of single compounds, quoted from the list. Screens in order: A1 inh	BJeLR viability
# Record of CC(C(=O)O)c1ccc(C(=O)c2cccs2)cc1 (stereo unspecified) = -1.9	-5.6
# Record of COc1cc(O)c2c(=O)cc(-c3ccc(OC)c(-c4c(O)cc(O)c5c(=O)cc(-c6ccc(O)cc6)oc45)c3)oc2c1 = 0.5	-8.0
# Record of Cc1nc2ccccn2c(=O)c1CCN1CCC(C(=O)c2ccc(F)cc2)CC1 = -1.2	-0.8
# Record of COc1cc2ncnc(Nc3cccc(O)c3)c2cc1OC = 12*	-4.2

# Laid out differently: entries from further up.
canonical_smiles	A1 inh	BJeLR viability
CN1CCOC(c2ccccc2)c2ccccc2C1 (stereo unspecified)	-0.8	-0.3
C[C@]12CCC(=O)C=C1CC[C@@H]1C2CC[C@@]2(C)C1CC[C@@H]2C(=O)CO (stereo partly specified)	-0.2	-4.7
COc1cc2ncnc(Nc3cccc(O)c3)c2cc1OC	12*	-4.2

# (continued)
c1ccc(CN(CC2=NCCN2)c2ccccc2)cc1
  A1 inh = -0.6
  BJeLR viability = -5.8
COc1ccccc1N1CCN(CCCNc2cc(=O)n(C)c(=O)n2C)CC1
  A1 inh = -0.5&-0.5
  BJeLR viability = 6.1&-1.2
CC(=O)[C@H]1CCC2C3C[C@H](C)C4=CC(=O)CC[C@]4(C)C3[C@@H](O)C[C@@]21C (stereo partly specified)
  A1 inh = 0.6
  BJeLR viability = -5.4
Oc1ccc(/C=C/c2cc(O)cc(O)c2)cc1
  A1 inh = -6.6
  BJeLR viability = -1.3
CC1(C)O[C@H]2CC(=O)OC[C@]23[C@H]2CC[C@@]4(C)[C@H](c5ccoc5)OC(=O)[C@H]5O[C@]54[C@]2(C)C(=O)C[C@@H]13
  A1 inh = 0.6
  BJeLR viability = -5.3

# Screening results deposited in PubChem BioAssay by Broad Institute.

# Some of the compounds tested; count on the stated rates, not on these rows.
